Screens from PubChem.
UCH37 DUB inh: human UCH37 deubiquitinating enzyme inhibition. Q9Y5K5. AID 588478. hit rate 0.33% among 330,000. inhibition, % (no concentration beside the values). purified proteasome/UCH37, Ub-AMC cleavage fluorescence;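 active means mean of two replicates above 20%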;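 further: 0% = compound-free wells with enzyme and 100% = wells lacking proteasome; stock transfer was 100 nL into about 20 µL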
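System: Proteasome-associated human UCH37 deubiquitinase; Input: 0.15 nM proteasome in added enzyme buffer; Also added: Ub-AMC substrate from 1 µM stock; Incubation: 30 min compound-proteasome preincubation then 25 min substrate reaction, room temperature; Detection: fluorescence, ex 355 nm, em 460 nm; Read-out: % inhibition of Ub-AMC cleavage fluorescence; Benchmarks: no-proteasome and no-compound wells.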
RanGTP-Impb inh: disruptors of Ran-importin-beta complex formation – biochemical, FRET, CFP-Ran, YFP-importin-beta, homogeneous, primary screen; cell-free CFP-Ran/YFP-importin-beta FRET ratio; inhibition, % (concentration not given with the values); hit rate 1.1% among 300,000; AID 2216;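 active means most replicates above 15%; inconclusive means exactly half above 15%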;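 further: 0% = DMSO wells and 100% = Ran loaded with GDP instead of GTP; wells of about 40 µL received 100 nL stock; the first replicate is given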
Beta2AR agonist: activates human beta-2 adrenergic receptor causing internalization; response, % (no concentration beside the values); Am2.2-beta2AR cells, FAP receptor internalization, flow cytometry; reference of the scale not given here; P07550; hit rate 0.43% among 340,000;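 active means response above a set limit, near 3 SD of response in nonfluorescent compounds, cut at about 42% in these data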;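 further: stock transfer was 100 nL into about 11 µL; a reference agonist was the positive control; negative values mostly stem from fluorescent compounds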
LANA-H2A inh: blocks KSHV LANA binding to histone H2A/H2B | Q9QR71 | cell-free LANA-H2A/H2B peptide, fluorescence polarization | inhibition, % (no concentration beside the values) | hit rate 0.6% among 320,000 | AID 2629; in the data active means inhibition mostly above about 10%, no sharp cut-off; inactive means mostly below about 6.7%;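 further: stock transfer was 7.5 nL into about 10 µL; 0% = median of vehicle wells and 100% = median of positive control wells; one replicate is shown; the record names a cut of 25% in any replicate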
Target sequence (Q9QR71 whole entry, looked up): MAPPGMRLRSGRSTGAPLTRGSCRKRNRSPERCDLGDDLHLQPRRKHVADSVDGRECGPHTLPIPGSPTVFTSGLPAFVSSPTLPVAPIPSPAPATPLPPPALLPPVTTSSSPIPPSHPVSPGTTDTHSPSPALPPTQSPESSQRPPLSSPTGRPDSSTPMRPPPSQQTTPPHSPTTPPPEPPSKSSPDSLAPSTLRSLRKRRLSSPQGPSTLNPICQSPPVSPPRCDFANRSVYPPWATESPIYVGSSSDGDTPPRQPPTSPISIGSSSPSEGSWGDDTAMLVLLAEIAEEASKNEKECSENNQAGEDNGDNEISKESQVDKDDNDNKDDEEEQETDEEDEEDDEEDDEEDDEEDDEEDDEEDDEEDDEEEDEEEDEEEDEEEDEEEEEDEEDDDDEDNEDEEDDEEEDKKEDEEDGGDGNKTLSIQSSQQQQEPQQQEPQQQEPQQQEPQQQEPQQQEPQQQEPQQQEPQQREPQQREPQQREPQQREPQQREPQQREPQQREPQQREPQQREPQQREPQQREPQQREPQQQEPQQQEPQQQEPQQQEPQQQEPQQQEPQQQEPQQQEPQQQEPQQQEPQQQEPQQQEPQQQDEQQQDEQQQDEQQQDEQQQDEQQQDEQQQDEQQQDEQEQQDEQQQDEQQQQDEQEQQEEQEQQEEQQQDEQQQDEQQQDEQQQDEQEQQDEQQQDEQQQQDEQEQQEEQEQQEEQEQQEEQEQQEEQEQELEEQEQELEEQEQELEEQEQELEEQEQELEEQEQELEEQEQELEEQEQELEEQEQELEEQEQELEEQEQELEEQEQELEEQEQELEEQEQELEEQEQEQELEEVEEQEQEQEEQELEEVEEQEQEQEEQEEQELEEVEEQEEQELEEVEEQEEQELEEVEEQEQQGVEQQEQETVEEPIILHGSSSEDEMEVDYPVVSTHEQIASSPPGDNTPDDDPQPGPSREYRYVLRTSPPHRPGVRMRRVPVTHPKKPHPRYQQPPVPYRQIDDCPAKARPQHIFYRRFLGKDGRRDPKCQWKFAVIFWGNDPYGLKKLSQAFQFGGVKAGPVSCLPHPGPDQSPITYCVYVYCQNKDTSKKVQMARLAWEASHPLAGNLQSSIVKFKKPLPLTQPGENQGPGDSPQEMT
Beta apoptosis: beta cell apoptosis inhibition | AID 435005 | protection from apoptosis, % (test concentration not listed) | INS-1E cytokine-induced death, ATP luminescence, 48 h; percent of positive-control rescue, neutral wells zero | hit rate 0.8% among 300,000;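 active means all replicates at 75% or more, or half of them and the mean; inconclusive means half reach 75% but not the mean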;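 further: 0% = cytokine-treated negative control wells and 100% = positive control rescue; higher means more ATP so stronger rescue from cytokine killing; wells of about 40 µL received 100 nL stock; the first replicate is given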
T cruzi repl: T. cruzi replication inhibition | hit rate 1.4% among 300,000 | inhibition, % (concentration not given with the values) | T. cruzi beta-gal in NIH3T3, luminescence, 90 h;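 active means mean inhibition across valid replicates above about 55%, limit read from the data; inconclusive means mean below that limit but half or more replicates reach it; inactive means mean below it, under half of replicates reach it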;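 further: signal also drops with host cell toxicity which is not excluded here; 0% = plate median of DMSO wells and 100% = zero luminescence signal; higher percent means less beta-gal luminescence so fewer parasites; stock transfer was 50 nL into about 50 µL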
Bfl-1 A1 inh: inhibitors of the anti-apoptotic protein A1, read as caspase activation. MEF A1-2A-BIM cells, Caspase-Glo 3/7 luminescence, 3 h; percent of clofoctol response, vehicle zero. caspase activation, % (concentration not given with the values). hit rate 0.066% among 330,000;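 active means over half of replicate activation scores above 10%, or exactly half above 10 with the replicate mean above 10; inconclusive means replicate mean below 10 yet half the replicates above 10; inactive means over half of replicates below 10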;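 further: wells of about 30 µL received 50 nL stock; many hits fall short of the cut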
Calb FLC: affects C. albicans growth with fluconazole; C. albicans CaCi-2 (fluconazole-resistant clinical isolate) + fluconazole, Alamar Blue growth, 48 h; growth inhibition, % (test concentration not listed); hit rate 0.57% among 300,000; AID 1979;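 active means most replicates above 75%; inconclusive means exactly half above 75%; inactive means most below 75%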;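 further: all wells also contain fluconazole at 8 µg/ml as a sub-toxic cotreatment; 0% = median of DMSO wells and 100% = median of geldanamycin control wells; wells of about 8 µL received 7.5 nL stock; the first replicate is given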
* hit, by the source's call; ? = inconclusive; . = not tested or not shown.

SMILES	UCH37 DUB inh	RanGTP-Impb inh	Beta2AR agonist	LANA-H2A inh	Beta apoptosis	T cruzi repl	Bfl-1 A1 inh	Calb FLC
CC(=O)c1c(C)[nH]c(C(=O)COC(=O)CCCOc2ccccc2)c1C	0.4	-0.3	5	-5.7	-11	-18	-0.1	1
Cc1cc(=O)n2[nH]c(-c3ccsc3-n3c(C)ccc3C)cc2n1	3.8	-8.6	22	-0.5	-6	-15	0.7	-2
COc1cc2c(cc1OC)C(C)N(C(=O)c1c(C)noc1C)CC2 (configuration not stated)	4.8	1.5	-3	5.5	-3	2	0.6	22
COc1ccc(CNC(=O)Cn2nc(Cc3cccnc3)c3ccccc3c2=O)cc1	1.7	1.9	-6	-0.9	2	1	.	5
NNC(=O)c1ccc(Cn2cc(Br)cn2)o1	5.3	0.0	4	2.8	-2	-7	0.0	-11
O=C(CSc1nnc(COc2cccc3cccnc23)o1)N1CCCC1	-10	5.8	2	-6.1	-5	4	-0.3	-2
O=C(Nc1ccc(N2CCOCC2)cc1)c1ccc(S(=O)(=O)NCc2ccco2)cc1	5.1	-0.5	-6	0.0	-3	3	0.2	-2
FC(F)(F)c1cc(C(F)(F)F)n2nc(-c3sccc3-n3cccc3)cc2n1	0.2	1.6	13	2.5	-1	-2	-0.2	8
COCCN1C=C(C(=O)OC)C(c2ccccc2C(F)(F)F)C(C(=O)OC)=C1	.	56*	-2	0.1	2	8	1.5	-1
COCCc1nc2ccc(C(=O)N(C)Cc3cccc(-n4cccn4)c3)cc2o1	0.4	?	-11	0.4	-5	2	-3.5	9
Clc1cccc(-c2nnc(SCc3nc4ccccc4[nH]3)n2Cc2ccco2)c1	0.2	5.1	55*	-2.6	4	-1	-0.5	-5
Cc1c(C(=O)Nc2ccccc2Cl)oc2ccc(S(=O)(=O)N3CCC4(CC3)OCCO4)cc12	-17	1.0	4	-0.4	6	-6	1.3	-12
Cc1cccc(-c2noc(CN(C(C)C)S(=O)(=O)c3ccc(F)cc3)n2)c1	3.7	4.5	-7	-3.0	7	5	-0.6	-2
COC(=O)C1(C(O)C(=O)c2ccc(C)cc2C)CCCCC1 (configuration not stated)	3.3	4.2	9	6.1	-4	-1	-0.5	6
NC(=O)c1ccc(NCC2COc3ccccc3O2)c([N+](=O)[O-])c1 (configuration not stated)	0.3	0.8	-6	-5.0	-8	-10	-0.7	27
CCNc1nc(NCC)n2c(SCc3nc4ccccc4c(=O)[nH]3)nnc2n1	0.7	-3.1	4	1.8	-5	-15	0.6	-7
Cc1cc(C)cc(Oc2ncnc3c2ncn3Cc2c(Cl)cccc2Cl)c1	-0.7	1.0	-4	.	.	60*	.	-6
COc1ccc(C2=NOC(Cn3nc(C(=O)NCc4cccc(Br)c4)cc3-c3ccccc3)C2)cc1 (configuration not stated)	2.3	.	7	-0.4	6	.	-0.2	.
O=C(Nc1cccnc1Oc1ccc(Cl)cc1)c1cccc2ccccc12	5.2	0.0	8	0.3	-1	-4	0.4	15
CCNC(=S)N1CCN(S(=O)(=O)/C=C/c2ccccc2)CC1	5.1	5.9	-2	1.4	-1	0	0.0	1
Cc1ccc(-n2c(C)cc(C(=O)COc3cccnc3[N+](=O)[O-])c2C)cc1	0.0	4.7	-8	.	7	8	1.4	9
O=C(Oc1ccccc1[N+](=O)[O-])c1cccnc1	4.4	-1.5	6	1.3	-1	-16	0.5	-1
C/C(=C\C(=O)c1ccc(Cl)s1)N(C)C	7.5	8.3	-5	-5.5	-2	-12	0.4	12
Nc1cc(N)cc(-c2nc3ccccc3o2)c1	-3.6	?	43*	-4.2	2	18	-1.4	2
O=C(CNc1cccc(Cl)c1)NNC(=S)NCc1ccccc1	4.0	4.5	0	3.8	4	7	0.4	10
O=C(c1cc2sccc2n1Cc1ccc(F)cc1)N1CCCc2ccccc21	1.4	-3.5	-3	0.9	.	39	3.1	1
N#C/C(=N\Nc1cccc(C(F)(F)F)c1)C(=O)c1csc(-c2cccnc2)n1	.	-3.7	2	-7.3	-3	-5	0.0	-4
CNC(=S)N(CCN(C)C)Cc1cc2cc3c(cc2[nH]c1=O)OCO3	-109	-21	-2	3.3	-3	5	1.6	-7
CCn1cc(CCCC(=O)NCc2ccccc2OC)c2ccccc21	0.9	6.2	-4	-1.2	-5	-3	0.3	-1
COc1ccccc1N(Cc1cc(=O)[nH]c2ccccc12)C(=O)c1ccccc1	4.1	4.8	-11	3.0	-5	6	1.7	16
CCOc1ccc2c(c1)C(C)=CC(C)(C)N2S(=O)(=O)c1ccc(NC(C)=O)cc1	2.0	8.7	20	-2.6	45	55*	2.4	?
CC1(C)CC(=O)C=C(c2ccc(Cl)c(C(F)(F)F)c2)C1	-3.0	.	-8	-3.4	2	.	0.3	.
COc1cc(C(=O)Nc2ccccc2C2COC(=O)C2=N)cc(OC)c1OC (configuration not stated)	2.8	6.9	-1	-3.7	1	-19	-0.8	11
Cn1c(Cn2cnc([N+](=O)[O-])n2)nnc1SCC(=O)Nc1ccccc1	.	-0.5	-2	1.8	-2	-15	-0.1	20
CCOc1ccc2[nH]cc(S(=O)(=O)c3ccc(F)cc3)c(=O)c2c1	-0.7	-0.6	-2	0.7	-1	-1	0.0	3
OCCSc1ncnc2c1oc1ccccc12	-1.9	4.9	1	-5.3	0	-7	0.6	19
Cc1ccc(S(=O)(=O)N2CCOCC2)cc1C(=O)N(Cc1nnc(-c2ccccc2Cl)o1)C1CC1	2.1	1.1	5	0.8	3	8	0.2	2
COc1cccc(C2CC(=O)N3CN(c4ccccc4F)CSC3=C2C#N)c1 (configuration not stated)	6.8	11	-5	-2.4	-3	-7	-0.2	2
CC1=NN(C(C#N)c2cccc([N+](=O)[O-])c2)C(C)(C)C1 (configuration not stated)	-0.6	0.1	0	-1.8	-5	-32	2.4	15
Cc1cc2occ(CC(=O)NC3CCCc4ccccc43)c2cc1C (configuration not stated)	-1.9	-3.1	-2	4.2	-3	3	0.7	-13
CCOC(=O)c1cc(-c2ccc(C)cc2)n(CCC(=O)NCCN(C)C)c1C	3.3	-1.2	-2	0.9	5	26	-0.9	-19
O=C(c1ccccc1NS(=O)(=O)c1ccc(F)cc1)N1CCCC1	3.9	-2.9	-9	1.6	-2	5	0.2	-15
COc1ccc(NC(=O)C2=NN(C3CCS(=O)(=O)C3)C(=O)CC2)cc1S(N)(=O)=O (configuration not stated)	7.4	.	-5	4.7	7	.	-0.2	.
CCOC(=O)[C@H]1[C@H]2COc3ccc(OC)cc3[C@@H]2N2C(=O)CN(Cc3ccc(Cl)cc3)C(=O)[C@@]12C	3.9	.	-14	-0.4	-1	.	0.0	.
O=C(Nc1ccc(Oc2ccc(S(=O)(=O)N3CCOCC3)cn2)cc1)c1ccco1	1.5	-1.5	-12	7.7	-2	-11	1.3	4
COc1ccc(C(C)C)cc1S(=O)(=O)N1CCC(C(=O)NCC2CCCO2)CC1 (configuration not stated)	1.4	-5.5	2	-8.8	4	0	0.6	10
CC(=O)c1cc(-c2ccccc2)n(CC(=O)N2CCC(C)CC2)c1C	1.2	-0.9	13	-0.8	4	-4	?	-1
O=C(Nc1ncn[nH]1)c1ccc(S(=O)(=O)N2CCOCC2)cc1	0.9	3.4	-6	6.2	-9	-2	-0.5	-4
Cc1cccc(NC(=O)CC2CCC2)c1	3.5	-1.1	-10	0.4	0	-19	-0.5	4
CSc1ccccc1C(=O)NCc1ccccc1	0.1	0.4	-1	-4.4	-5	8	1.4	9

The list goes on:
SMILES	UCH37 DUB inh	RanGTP-Impb inh	Beta2AR agonist	LANA-H2A inh	Beta apoptosis	T cruzi repl	Bfl-1 A1 inh	Calb FLC
Nc1nc(CN2CCC(Cc3ccccc3)CC2)nc(Nc2ccccc2)n1	5.0	?	-9	-4.1	-14	9	-0.5	6
CC(C)C(c1nnnn1C1CCCC1)N(C)C1CCCCC1 (configuration not stated)	4.7	7.2	-4	-1.7	-1	2	0.3	5
COc1ccc(-c2nc3n(c(=O)c2C#N)CCS3)cc1OC	-5.5	1.8	-11	-8.8	5	-6	0.2	0
Cc1ccc(CSc2nc3ccccc3c(=O)n2C)cc1	4.5	2.4	5	0.4	17	1	-0.3	-2
COc1ccc(OC)c(NC(=O)c2cccc(S(=O)(=O)N(Cc3ccccc3)c3ccccc3OC)c2)c1	-0.5	-2.5	15	-4.0	0	35	-0.3	-11
C/C(=C\c1ccc(C(=O)O)cc1)c1ccc2c(c1)C(C)(C)CCC2(C)C	-71	.	7	-2.4	-15	.	0.7	.
O=C(Nc1ccncc1)Nc1cccc(Cl)c1	-0.7	2.8	1	0.3	4	43	0.6	1
Cc1cccc(C)c1Nc1nnc(SCC(=O)NCCCN2CCCC2=O)s1	-1.9	.	8	3.9	-1	.	-0.3	.
Cc1ccsc1CNC1CCCCC1	0.8	2.7	-2	1.0	2	-2	?	-6
C[C@@H]1CCC(=O)N(C[C@@H](C)CC#N)CC1	1.0	1.0	20	0.6	5	-8	2.1	1
CC(=O)Nc1ccc(/C=N/Nc2nc3ccccc3s2)cc1	.	-4.2	6	.	.	20	.	1
O=C(O)C[C@H]1c2ccccc2S(=O)(=O)N1C1CCCCC1	1.2	-0.9	-3	0.2	1	-6	1.1	-2
COC(=O)c1c(CSc2ccc(C)c(C)c2)noc1C(=O)NCc1ccc(OC)cc1	0.0	-1.8	1	1.1	.	6	-1.3	2
Cc1cc(=O)oc2ccc(OCC(=O)N3CCC(C)CC3)cc12	-31	-2.3	9	-3.3	-4	5	0.2	1
COc1ccc(C(=O)OCC(N)=O)cc1[N+](=O)[O-]	-1.2	1.5	-3	6.9	-4	-3	0.5	0
O=C(CN(Cc1ccccc1Cl)C(=O)Cn1nnc(-c2cccs2)n1)NCC1CCCO1 (configuration not stated)	3.2	3.2	-3	-5.0	-2	-5	0.5	-26
COC(=O)C1(NC(=O)NC23CC4CC(CC(C4)C2)C3)CCCCC1	-0.1	-2.5	3	-1.5	-4	2	0.1	-5
O=C(COc1ccc(Br)cc1Cl)NCCCN1CCOCC1	5.6	2.0	-8	1.0	.	-5	-1.6	-2
COc1cc(C2NC(=O)NC(O)(C(F)(F)F)C2C(=O)c2ccc(Cl)cc2)ccc1O (configuration not stated)	3.2	.	-6	-2.5	4	.	0.0	.
CCC1Nc2ncnc(N3CCN(c4ccccc4)CC3)c2N(Cc2ccc(OC)cc2)C1=O (configuration not stated)	1.2	0.2	-2	1.8	5	30	-0.7	12
Cc1nnc(SCc2cn3ccsc3n2)n(N)c1=O	0.7	-1.7	-8	-6.4	-5	-15	0.0	.
CCOc1ccc(N=C2SCCCN2C(=O)c2c(CC)noc2C)cc1	1.4	5.3	-2	-3.7	-1	10	-0.8	-3
O=[N+]([O-])c1ccc(-n2nnnc2-c2ccccc2)cc1	3.6	-0.2	-6	-5.5	5	22	0.1	1
